MARV entry inh: qHTS for inhibitors of binding or entry into cells for Marburg Virus; Marburg virus pseudotyped entry inhibition, cell reporter; control for the full effect not named in the record; about a third of the inactives were read at about 46 µM; 300,000 tested, 1.8% active; Potency, µM (series often up to 37.8 µM), for inactives: top-dose activity change, negative = inhibition, most hits filed as inhibitors; active = well fitted inhibition curve with a large enough effect; inconclusive = small, poorly fitted or top-dose-only effect, or effect the other way; inactive = flat fitted curve, though single readings scatter; tested in HEK293 cells; about a fifth of its hits are not listed in these tables; further: on the % scale 0 is the no-effect control and ±100 the full control effect; luciferase read-out
Cruzain inh noDet: qHTS Assay for Promiscuous and Specific Inhibitors of Cruzain (without detergent); Cruzipain (Trypanosoma cruzi), P25779; purified cruzain, Z-FR-AMC fluorescence, no detergent; 200,000 tested, 2.3% active; Potency, µM, for inactives: max response, negative = inhibition, actives largely listed as inhibitors; active means well fitted curve in the direction sought with a large enough effect; inconclusive means small, poorly fitted or top-dose-only effect, or another doubt; inactive means no such curve, though single readings can be large; an effect the other way counts as inactive or inconclusive;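 further: plate controls were enzyme without inhibitor for no effect and buffer without enzyme for full effect; nearly all actives have a fitted effect of over 40% in size; top concentration of the series not given in the record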
Target sequence (P25779 123-467 limits assumed): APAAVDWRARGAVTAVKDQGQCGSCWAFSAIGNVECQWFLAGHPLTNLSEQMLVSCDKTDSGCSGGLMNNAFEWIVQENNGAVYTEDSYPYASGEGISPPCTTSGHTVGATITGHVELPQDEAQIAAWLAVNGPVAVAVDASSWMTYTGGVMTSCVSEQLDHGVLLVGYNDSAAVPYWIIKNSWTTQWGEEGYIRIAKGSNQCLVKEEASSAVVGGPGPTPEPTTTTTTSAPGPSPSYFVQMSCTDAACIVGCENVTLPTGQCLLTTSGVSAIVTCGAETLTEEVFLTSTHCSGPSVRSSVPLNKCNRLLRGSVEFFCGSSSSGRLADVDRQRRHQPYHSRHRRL
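Detergent-free condition (0.00005% Triton X-100) in acetate buffer pH 5.5 with DTT. 1.5 nM enzyme and compound were pre-mixed 15 min, then 2 uM Z-FR-AMC substrate added; reaction progress from fluorescence change between first and third reads (60 s).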
NS1 inh: qHTS Assay for Inhibitors of Influenza NS1 Protein Function; S. cerevisiae slowed by influenza A NS1, growth recovery by OD600; Potency, µM (titrated, usually from 46.1 µM), without a hit: at the top dose activity, positive = more growth; 270,000 tested, 0.4% active; AID 2326, 2010; further: actives are rising curves; nearly all actives have a fitted effect of over 50% in size
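Read-out: OD600 growth recovery of NS1-expressing budding yeast. Cells grown overnight at 30C in -URA glucose medium, washed, resuspended and diluted 1:100 in 2% galactose assay medium, pH 6.0. Same strain lacking NS1 served as positive control.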
Cruzain Triton: qHTS Assay for Promiscuous and Specific Inhibitors of Cruzain (with detergent); Cruzipain (Trypanosoma cruzi), P25779; purified cruzain, Z-FR-AMC fluorescence, 0.01% Triton; Potency, µM, without a hit: max response, negative = inhibition, hits mostly inhibitors; 200,000 tested, 0.43% active; AID 1478, 2009; active means well fitted curve in the direction sought with a large enough effect; inconclusive means small, poorly fitted or top-dose-only effect, or another doubt; inactive means no such curve, though single readings can be large; an effect the other way counts as inactive or inconclusive;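 further: plate controls were neutral wells for no effect and buffer without enzyme for full effect; nearly all actives have a fitted effect of over 40% in size; top concentration of the series not given in the record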
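Detergent-containing run (0.01% Triton X-100) in acetate buffer pH 5.5 with 5 mM DTT: enzyme at 1.5 nM final, 15 min compound preincubation at room temperature, then 2 uM Z-FR-AMC substrate. Activity taken as 60 s fluorescence increase at 360/450 nm.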
RE007 growth inh: qHTS Assay for Inhibitors of the HIV-1 protein Vpr. AID 651644, 2012. 360,000 tested, 0.21% active. S. pombe RE007 Vpr strain, BacTiter-Glo ATP luminescence, 24 h; control for the full effect not named in the record. Potency, µM (highest dose often 92.2 µM), without a hit: at the top dose activity change, negative = less growth; active = well fitted falling curve with a large enough effect; inconclusive = small, poorly fitted or top-dose-only effect; inactive = no such curve, though single readings can be large or run the other way;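 further: on the % scale 0 is the no-effect control and ±100 the full control effect; nearly all actives have a fitted effect of over 50% in size; the assay follows cell death caused by Vpr and the record does not say whether a fall means rescue or toxicity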
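Fission yeast RE007 carrying one integrated HIV-1 vpr copy, seeded at OD 0.01 in PMG+AL medium with 23 nL pinned compound. Grown 24 h at 30 degrees; viability read by BacTiter-Glo luminescence after 5 min.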
Lassa entry inh: qHTS for Inhibitors of binding or entry into cells for Lassa Virus. Lassa virus pseudotype entry inhibition, cell reporter; control for the full effect not named in the record. Potency, µM (highest dose often 37.9 µM), without a hit: top-dose activity change, negative = inhibition, hits mostly inhibitors. 300,000 tested, 1.2% active; active means well fitted inhibition curve with a large enough effect; inconclusive means small, poorly fitted or top-dose-only effect, or effect the other way; inactive means flat fitted curve, though single readings scatter; tested in HEK293 cells; further: on the % scale 0 is the no-effect control and ±100 the full control effect; nearly all actives have a fitted effect of over 50% in size; luciferase read-out
StopGo reporter: High Throughput Screening for Foot and Mouth Disease Virus Antivirals; Potency, µM (highest dose often 57.9 µM), for inactives: at the highest dose signal change, negative = less light; human cells with a luciferase reporter of 2A StopGo recoding; control for the full effect not named in the record; AID 1159524, 2015; 410,000 tested, 1.2% active; active = well fitted falling curve with a large enough effect; inconclusive = small, poorly fitted or top-dose-only effect; inactive = no such curve, though single readings can be large or run the other way; tested in HEK293T cells; further: on the % scale 0 is the no-effect control and ±100 the full control effect; nearly all actives have a fitted effect of over 45% in size; luciferase light after 4 h
SARS PLP yeast: qHTS of Yeast-based Assay for SARS-CoV PLP. S. cerevisiae expressing SARS-CoV PLpro, growth rescue; control for the full effect not named in the record. Potency, µM (series often up to 32.9 µM), for the others: top-dose activity, positive = growth rescue. 330,000 tested, 0.19% active; further: 0% is about no effect; nearly all actives have a fitted effect of over 55% in size; growth read by luminescence after 48 h
Active calls of the source: *; ? = inconclusive; . = not tested or not shown; & = joins results of further samples; [ ] = remark or other dose. Unless noted, the call rests on the fitted dose curve; in most records, active means well fitted rising curve with a large enough effect; inconclusive means small, poorly fitted or top-dose-only effect; inactive means no such curve, though single readings can be large or run the other way. Potency means the concentration at half of the fitted maximal effect.

Screens in order: MARV entry inh	Cruzain inh noDet	NS1 inh	Cruzain Triton	RE007 growth inh	Lassa entry inh	StopGo reporter	SARS PLP yeast
CN(/N=C/c1cc(Cl)cc(Cl)c1O)c1c(Cl)cccc1[N+](=O)[O-]
    ?	.	4%	.	0%	4%[46.1 µM]	12%	0%
Nc1c(C(=O)C2CC2)sc2nc(-c3cccs3)cc(C(F)(F)F)c12
    13%	-12%	2%	-1.6%	-20%	3%	-18%	-3%
COc1ccc(NS(=O)(=O)c2cccc(C(=O)NNC(=O)c3cc(S(N)(=O)=O)ccc3OC)c2)cc1
    4%[46.1 µM]	.	.	.	-10%	3%	-12%	0%
NC(=O)CSc1nc2cc3c(cc2c(=O)n1CCCC(=O)NCc1ccc2c(c1)OCO2)OCO3
    2%	-7%	9%	2.9%	-8%	-20%	-24%	-2%
O=C1C=C(NC2CCCC2)CC(c2ccccc2)C1 (stereo unspecified)
    -5%&-5%[46.1 µM]	.	.	.	12%	?	-17%	-1%
CSc1nc2sc3c(c2c(=S)[nH]1)CC(C)(C)OC3
    25%[46.1 µM]	.	2%	.	-4%	11%	-6%	0%
COc1ccc2c(C)c(C(=O)O)oc2c1
    5%	-9%	-15%	1.8%	-10%	5%	-14%	6%
CCS(=O)(=O)NCCc1sc2nc(-c3ccc(OC)cc3)nn2c1C
    .	0%	.	-2.1%	.	-15%[46.1 µM]	-25%	.
O=C(c1cnn2c(C(F)F)cc(C3CC3)nc12)N1CCCC1
    -5%	8%	-4%	3.9%	10%	0%	11%	2%
O=C(c1ccc(OC2CCN(CCc3ccccc3)CC2)cc1)N1CCCC(CCCO)C1 (stereo unspecified)
    .	.	1%	.	10%	.	-16%	6%
COc1ccc(S(=O)(=O)N2CCCC(C(=O)NCc3ccc(F)cc3)C2)cc1 (stereo unspecified)
    5%[46.1 µM]	.	-15%	.	-11%	7%	-15%	-22%
CCN1CCN(c2ncnc3c2cnn3-c2ccc(C)c(Cl)c2)CC1
    .	-13%	.	2.7%	.	?	8%	.
Cc1nc2cc([N+](=O)[O-])ccc2c(=O)n1-c1ccc(Br)cc1
    .	.	-9%	.	-1%	.	13%	4%
Cc1ccnc(NC(=O)c2cc3cc(F)ccc3s2)c1
    .	.	-15%	.	?	?	-15%	1%
COc1ccc(-n2c(=O)c3c4c(sc3n(Cc3ccccc3Cl)c2=O)CCC4)c(OC)c1
    7%[46.1 µM]	7%	.	-1.5%	.	?	-25%	.

Single records, from the list above. Screens in order: MARV entry inh | Cruzain inh noDet | NS1 inh | Cruzain Triton | RE007 growth inh | Lassa entry inh | StopGo reporter | SARS PLP yeast
O=C1C=C(NC2CCCC2)CC(c2ccccc2)C1 (stereo unspecified) reads -5%&-5%[46.1 µM] | . | . | . | 12% | ? | -17% | -1%
COc1ccc2c(C)c(C(=O)O)oc2c1 reads 5% | -9% | -15% | 1.8% | -10% | 5% | -14% | 6%
CN(/N=C/c1cc(Cl)cc(Cl)c1O)c1c(Cl)cccc1[N+](=O)[O-] reads ? | . | 4% | . | 0% | 4%[46.1 µM] | 12% | 0%

The list continues.
Screens in order: MARV entry inh	Cruzain inh noDet	NS1 inh	Cruzain Triton	RE007 growth inh	Lassa entry inh	StopGo reporter	SARS PLP yeast
CCN(C(=O)CSc1nc2cc(C(F)(F)F)ccc2n1Cc1ccccc1)C1CCS(=O)(=O)C1 (stereo unspecified)
    -2%	?	6%	-4.7%	-5%	12%	7%	-32%
O=C(COC(=O)C1CC(=O)N(c2nc(-c3ccccc3)cs2)C1)c1ccccc1 (stereo unspecified)
    -8%	25µM*	20%	-5.1%	?	?	5%	-7%
O=C(Cn1nc(-c2ccccc2)c2ccccc2c1=O)Nc1cccc(O)c1
    ?	.	-14%	.	3%	.	-13%	0%
CC(C)(C)Nc1c2ccccc2nc2ccccc12
    -10%[46.1 µM]	.	-38%	.	-17%	8%[46.1 µM]	?	-4%
CCC(C)[C@H](NC(=O)NC1CCN(Cc2ccccc2)CC1)C(=O)OC (stereo partly specified)
    4%	-5%	12%	4.7%	-29%	10%	-19%	7%
COc1ccccc1-c1coc2c(CN3CCOCC3)c(O)ccc2c1=O
    .	.	14%	.	-12%	.	-6%	0%
CCN(CC)S(=O)(=O)c1cccc(-c2n[nH]c(=S)n2/N=C/c2ccc(C(=O)OC)cc2)c1
    13%	-16%	26%	-8.3%	18%	2%	-18%	4%
COc1ccc(-n2c(SCC(=O)NCc3ccccc3)nc3ccsc3c2=O)cc1
    .	8%	.	0.2%	.	27%[46.1 µM]	-23%	.
Cc1cccc(N(C(=O)Nc2ccccc2)C2=NCC(C)S2)c1 (stereo unspecified)
    .	1%	-46%	2.5%	2%	.	10%	3%
O=C(c1ccccc1)N1CCN(C2C3CC4CC(C3)CC2C4)CC1 (stereo unspecified)
    5%	15%	3%	7.6%	0%	-20%	.	-11%
N#Cc1ccc(N2C(=O)[C@@H]3C(C(=O)c4ccc5ccccc5n4)=NN[C@@H]3C2=O)cc1
    17%	-30%	2%	-7.4%	-22%	15%	-15%	-38%
COc1ccccc1NC(=O)N1CCC(NC(=O)C(Cc2ccccc2F)NC(C)=O)CC1 (stereo unspecified)
    5%[46.1 µM]	.	0%	.	9%	12%[46.1 µM]	-6%	-1%
CCOC(=O)C1(P(=O)(c2ccccc2)c2ccccc2)CCC1
    5%	-2%	0%	3.5%	-4%	3%	-10%	-22%
COc1ccc2c(=O)c(Oc3ccc(C(=O)O)cc3)c(C(F)(F)F)oc2c1
    .	.	8%	.	3%	.	31%[activator]	-4%
O=C(CCCN1C(=O)/C(=C/c2cccs2)SC1=S)Nc1ccccn1
    -15%[46.1 µM]	.	1%	.	-13%	2%	0%	0%
COc1ccc(-n2c(Cc3cc(=O)[nH]c(=O)[nH]3)nnc2SCC(=O)N2CCCC2)cc1
    -5%	6%	-8%	-0.6%	-9%	.	-11%	3%
N#Cc1c2c(c(Nc3ccc(O)cc3)n3c1nc1ccccc13)CCC2
    -13%	0%	27%	-4.2%	4%	0%	-21%	?
CNC(=O)C1CCN(C(=O)c2ccc(-c3ccccc3)cc2)CC1
    ?	5%	5%	-5.5%	-9%	-2%	7%	9%
Cc1c(C(=O)N2CCC3(CC2)OCCO3)sc2ncnc(N3CCc4ccccc4C3)c12
    ?	.	.	.	11%	?	-24%	-4%
O=C(Cc1ccccc1)Nc1cccc(-c2nc3cccnc3s2)c1
    17%[46.1 µM]	2%	.	-1.9%	.	20%[46.1 µM]	36%[activator]	.
N#C/C(=C\c1cccc([N+](=O)[O-])c1)c1nnc2n1CCCCC2
    ?	3%	-24%	2.1%	16%	-10%	-15%	-20%
CSCC[C@H](NC(=O)OC(C)(C)C)C(=O)NCC1CCC(C(=O)N[C@@H](Cc2ccccc2)C(=O)O)CC1 (stereo partly specified)
    ?	.	1%	.	-6%	?	7%	0%
COc1cc(CNc2ccc(CNc3ncn[nH]3)cc2)cc(Cl)c1OCc1ccccc1
    ?	1%	?	-1.1%	6%	1%	?	-6%
CCC(C)C(=O)Nc1ncc2c(n1)CC(c1cccs1)CC2=O (stereo unspecified)
    23%	-5%	3%	4.0%	-6%	1%	-4%	-1%
Cc1ccc(NC(=O)CSc2nc(-c3ccco3)cc(C(F)(F)F)n2)c(C)c1
    ?	-4%	.	0.3%	.	-22%[46.1 µM]	?	.
CN1CCCCc2c1[nH]c1ccccc1c2=O
    -16%	-4%	-51%	-0.2%	17%	?	-29%	-8%
COCCOC(=O)C1=C(C)Nc2nc(C)nn2C1c1ccc(F)cc1 (stereo unspecified)
    ?	3%	10%	2.8%	8%&17%	-25%[46.1 µM]	-22%&1%	13%
O=C(/C=C/c1ccc(Cl)cc1)N1CCN(Cc2ccccc2)CC1
    ?	.	-12%	.	-10%	0%	-1%	6%
CC(C)(C)OC(=O)NCCc1nnc(SCc2ccc(Cl)cc2Cl)o1
    ?	?	-34%	4.5%	20%	-17%	?	-9%
Cc1cc([N+](=O)[O-])nn1CC(=O)Nc1c(C)n(C)n(-c2ccccc2)c1=O
    4%	.	.	.	1%	-2%	1%	12%
O=C(CC1SC(=Nc2ccccc2)N(CCc2ccccn2)C1=O)Nc1ccc(F)cc1 (stereo unspecified)
    ?	12%	-19%	-4.7%	-15%	?	0%	-11%
COC(=O)Cc1c(C)nc2nc(-c3ccc(Cl)cc3)[nH]n2c1=O
    -7%	-12%	0%	-0.9%	-29%	-11%	0%	?
CCOC(=O)Cn1c(=O)n(-c2cccc(Cl)c2)c2nc(-c3ccccc3Cl)nc(C(N)=O)c21
    .	?	.	-6.3%	.	26%[46.1 µM]	-21%	.
O=C(O)c1ccc(NS(=O)(=O)c2ccc(Cl)c(C(=O)Nc3ccccc3)c2)cc1
    .	9%	29%	-2.0%	5%	4%[46.1 µM]	15%&-11%	13%
O=C(COC(=O)c1cccnc1Nc1ccccc1F)NC1CC1
    14%	-4%	-8%	-3.2%	1%	12%	-5%	.
CCOc1ccc(-c2nnc(SCC(=O)NCCC(C)C)nc2-c2ccc(OCC)c(OC)c2)cc1OC
    .	14%	.	-1.8%	.	?	27%	.
O=C(CSc1ccccc1)NCc1ccccn1
    28%	-2%	-4%	-0.7%	-12%	14%	24%	1%
